Source: PubChem BioAssay (several laboratories)
Mtb hypoxia inh = reduces hypoxia-regulated biosensor signal in M. tuberculosis; M. tuberculosis hypoxia-regulated fluorescent reporter, fluorescence; fluorescence inhibition, % (concentration not given with the values); 0.1% of 300,000 active; AID 1159583;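 active = 35 to 45% if threefold the growth effect, above 45% if 1.5-fold the growth effect; inactive = the rest, general growth blockers included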;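 also: wells of about 50 µL received 100 nL stock; 0% = vehicle wells and 100% = reference inhibitor wells; whole bacteria with a GFP reporter of the hypoxia response; strong numbers were not always called active; many hits fall short of the cut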
BJeLR lethal = kills HRASV12-expressing BJeLR cells; 0.17% of 300,000 active; BJeLR (HRASV12) viability, CellTiter-Glo ATP luminescence, 48 h; reference of the scale not given here; inhibition, % (concentration not given with the values); AID 1554;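 active = replicate mean above 50%; inconclusive = above 50% but judged a plate artefact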;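 also: 50 nL library stock added to about 25 µL; numbers are from one replicate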
Sa ugtP lethal = kills S. aureus RN4220 lacking UgtP | S. aureus RN4220 ugtP deletion, OD600 growth, 16 h; some inactives read as strong as hits | growth inhibition, % (no concentration beside the values) | 0.54% of 330,000 active | AID 1259309;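 active = z-score under -3 and OD600 up to 0.15 on both plates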;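 also: plate controls were untreated wells for no effect and antibiotic for full effect; wells of about 80 µL received 100 nL stock; the first replicate is given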
Sa RN4220 lethal = S. aureus RN4220 growth inhibition; OD600, 16 h; inhibition, % (test concentration not listed); 0.33% of 330,000 active;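 active = z-score of -3 or lower and OD600 up to 0.18 on both plates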;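 also: plate controls were untreated cells for no effect and reference antibiotic for full effect; stock transfer was 100 nL into about 80 µL; one replicate is shown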
Autofluor counter = flagged as autofluorescent in microsphere protease counterscreen; compound autofluorescence counterscreen, microsphere flow cytometry; stronger effect = higher value; fluorescence intensity (concentration not given with the values); AID 624483; 3.1% of 360,000 active;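 active = at least 3 SD above the mean of all compounds, about 16000 in these data; inconclusive = too few beads counted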;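 also: 100 nL of 1 mM stock went into each well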
PrP UTR inh = suppresses PrP 5' UTR mRNA reporter expression; inhibition, % (concentration not given with the values); 0.35% of 340,000 active; cell-based PrP 5' UTR mRNA reporter, plate reader;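 active = every replicate at 50% or more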;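 also: 0 = median of the neutral control wells; tested in H4 reporter cells; numbers are from one replicate; inactives centre near -14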
Mtb hypoxia inh growth = further read-out of Mtb hypoxia inh, marked with its call; growth inhibition, %; measured here: M. tuberculosis growth (absorbance);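 0% = vehicle and 100% = reference antibiotic; read after six days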
* marks the source's active call; other numbers are inactive results; ? = inconclusive; . = not tested or not shown. Random draw from the library; overall some 4% were active at least once.

Compound,PrP UTR inh,Sa ugtP lethal,Mtb hypoxia inh growth,BJeLR lethal,Mtb hypoxia inh,Autofluor counter,Sa RN4220 lethal
Cc1c(C(=O)NC2CCN(Cc3ccccc3)C2)oc2ccc(Br)cc12 (centres undefined),-4,14,0,-7,12,4749,-0.6
N#C/C(=C\c1cc2ccccc2nc1N1CCOCC1)C(=O)Nc1ccc(N2CCOCC2)cc1,-2,7,-1,2,-1,6678,4.5
c1ccc(-n2ncc3c(N4CCCC4)ncnc32)cc1,0,-8,20,2,16,?,14
Cc1ccc(C)c(NC(=O)C2CCCN(c3cnccn3)C2)c1 (centres undefined),-20,8,-3,4,1,4622,3.3
COc1cccc(NC(=O)C2CCCN2S(=O)(=O)c2ccc3c(c2)n(C)c(=O)c(=O)n3C)c1 (centres undefined),-7,2,-1,6,4,5925,2.3
Cc1c(C#N)c(=O)c(-[n+]2ccccc2)c([S-])n1-c1ccc(Cl)cc1,-14,1,2,8,2,4213,2.3
Oc1c(Cl)cc(Cl)cc1CNc1nccs1,-11,21,-2,3,-2,4223,9.0
O=C(Cc1cccs1)N1CCN(c2nc(-c3ccc(Cl)cc3)cs2)CC1,-42,3,-1,12,-2,21233*,2.4
COc1ccc(-c2nnc(-c3ccc(OCC(C)C)cc3)o2)cc1,2,-1,6,1,3,4205,-1.5
Cc1ccc(CNC(=O)CN(c2cccc([N+](=O)[O-])c2)S(C)(=O)=O)cc1,-13,8,10,-4,10,3928,5.1
CC1(c2ccccc2)NC(=O)N(CC#N)C1=O (centres undefined),-14,9,7,3,1,3848,1.3
Cc1cccc(C)c1NC(=O)CCCSc1nnc(-c2ccco2)o1,-8,7,.,9,.,9609,2.3

Compound,PrP UTR inh,Sa ugtP lethal,Mtb hypoxia inh growth,BJeLR lethal,Mtb hypoxia inh,Autofluor counter,Sa RN4220 lethal
O=C(NC(=S)Nc1ccc2c(c1)OCCO2)c1ccccc1,-129,56,16,8,4,25451*,0.3
CN(C(=O)CSc1nc2ccccc2s1)c1c(N)n(Cc2ccccc2)c(=O)[nH]c1=O,-47,3,-5,20,11,3457,1.1
CCOC(=O)N1CCC(NC(=O)CCc2c(C)nc3ncnn3c2C)CC1,-5,-2,0,1,-2,22017*,1.5
Cc1cc(C)n(CCCNC(=O)c2ccc3c(c2)NC(=O)CS3)n1,-10,9,.,6,.,2855,2.6
Cc1cccc(-c2oc3ccccc3c2-c2ccc3c(c2)OCO3)c1,-8,.,.,-34,.,3862,.
CC(NC(=O)Cc1cccs1)c1ccccc1 (centres undefined),-21,12,17,-4,25,2213,1.3
COc1cc(CC(=O)Nc2ccccc2N2CCOCC2)cc(OC)c1OC,-22,6,-6,-3,-1,3810,9.1
Cc1cc(C)cc(N(CCC#N)C(=O)COC(=O)C2=COCCO2)c1,-24,1,-6,7,-2,6349,2.3
Cc1ccc(NC(=O)C(CC(C)C)NC(=O)C2CCC(C)CC2)nc1 (centres undefined),-23,12,7,1,9,6405,1.9
CS/C(=C\[N+](=O)[O-])Nc1ccc(C)cc1,-7,.,.,-2,.,1961,.
Cc1c(NC(=O)C(C)OC(=O)CCOc2ccccc2)c(=O)n(-c2ccccc2)n1C (centres undefined),-10,6,-3,1,5,6411,2.7
CN(C)C(CNS(=O)(=O)c1ccc2ccccc2c1)c1ccccc1 (centres undefined),.,3,14,2,-6,3927,3.4

Compound,PrP UTR inh,Sa ugtP lethal,Mtb hypoxia inh growth,BJeLR lethal,Mtb hypoxia inh,Autofluor counter,Sa RN4220 lethal
O=C(Nc1ccc(Cl)cc1)c1cccc(NC2=NC3CS(=O)(=O)CC3S2)c1 (centres undefined),-5,0,10,1,7,4592,-12
CCOC(=O)c1ccc(NS(=O)(=O)c2cc(-c3nnnn3C(C)C)ccc2OC)cc1,7,-11,.,-1,.,2654,-4.3
O=C(Nc1nc(N2C(=O)c3ccccc3C2=O)n(-c2ccccc2)n1)c1ccccc1,-21,5,2,8,1,7986,4.9
CCC(=O)N1C(C(=O)NCc2ccc(OC)cc2)CSC1c1ccc(OC)cc1 (centres undefined),-62,2,.,2,.,5663,-1.9
CCOc1ccc(-c2nnn(CC(=O)N3CCN(c4ccc(OC)cc4)CC3)n2)cc1OCC,-16,7,4,-4,9,4253,6.0
O=C(CCc1nnc(-c2ccc(-c3ccccc3)cc2)o1)N1CCCCC1,-20,0,16,-2,18,4185,2.4
S=c1[nH]nc2sc3ccccc3n12,-15,-3,0,.,-8,4043,5.1
OCC[C@@H]1C[C@H](O)[C@@H](O)[C@@]2(Cc3ccccc3CO2)O1,-14,.,.,-10,.,2956,.
CCOc1ccc(C=NNC2=NCCCCC2)cc1,.,0,0,.,-1,.,2.0
O=[N+]([O-])c1ccccc1S(=O)(=O)Nc1ccc(-c2ccc3nncn3n2)cc1,-1,-1,14,-3,4,6201,5.3
COc1ccc(NC(=O)CCCOc2ccc(Cl)c(C)c2)cc1S(=O)(=O)N1CCOCC1,7,-13,-2,.,-9,3785,1.6
O=C(NN=C/C(Br)=C/c1ccccc1)c1ccccc1[N+](=O)[O-],.,16,8,.,0,.,7.5

Compound,PrP UTR inh,Sa ugtP lethal,Mtb hypoxia inh growth,BJeLR lethal,Mtb hypoxia inh,Autofluor counter,Sa RN4220 lethal
COc1ccc(Cc2nnc(NC(=O)c3ccc(OC)cc3OC)s2)cc1,-12,-3,2,-11,-8,4118,6.5
CN(C)CCNC(=O)c1cc2cc(Br)ccc2oc1=O,-16,4,4,5,5,10526,1.1
CC(C)c1cccc(C(C)C)c1NC(=O)COC(=O)C1=COCCO1,-6,10,1,1,4,3310,1.1
CCCn1c(=O)c2ccccc2n2c(SCCOc3ccccc3F)nnc12,-22,8,0,-28,0,7936,3.8
C[C@@]12C(=O)N(c3cccc(Cl)c3)C(=O)N1C1c3ccccc3OCC1C2c1ccccc1 (some centres undefined),.,7,10,.,20,.,2.3
COc1ccc(C(=O)/C=C/c2ccccc2OC)c(OC(=O)c2ccc([N+](=O)[O-])cc2)c1,-109,1,.,0,.,4307,1.6
Cc1oc(-c2ccc(Cl)cc2)nc1CN1CCCC(C(=O)N2CCOCC2)C1 (centres undefined),-15,-1,0,8,-2,5155,0.0
COC(=O)C(O)(c1ccc(NC(=O)c2cccs2)c(C)c1)C(F)(F)F (centres undefined),-22,6,-1,2,-5,4304,3.0
O=C(CN1C(=O)C(c2ccc(F)cc2)=NC12CCCC2)Nc1ccc(F)cc1,-3,-13,6,14,4,4407,-12
COc1ccc(C(=O)NCC(=O)OCC(=O)NC2CCCCCC2)cc1OC,-16,6,7,.,11,4721,9.5
CC(=NNC(=S)NC(C)C)c1ccc(Cl)c([N+](=O)[O-])c1,.,3,8,.,-6,.,7.4
S=c1[nH]nc(Cc2ccccc2)n1-c1cccc2ccccc12,-1,2,-1,-6,9,2183,8.5

Compound,PrP UTR inh,Sa ugtP lethal,Mtb hypoxia inh growth,BJeLR lethal,Mtb hypoxia inh,Autofluor counter,Sa RN4220 lethal
O=Cc1ccc(C(=O)OCC(=O)Nc2ccc(F)cc2F)cc1,-24,11,1,-5,10,3958,5.3
C=CCn1c(COc2cccc3cccnc23)nnc1SCC(=O)O,-6,2,.,-1,.,4148,3.3
Cc1cc(C)nc(Nc2nc3ccccc3[nH]2)n1,-58,5,.,-3,.,3912,-1.0
CCOC(=O)C1=C(C)NC(=O)NC1c1ccc(Br)s1 (centres undefined),-21,1,.,-9,.,3052,0.3
c1ccc(-n2cnc3cc(NCc4ccncc4)ccc32)cc1,-25,-5,10,2,-1,8386,1.8
O=C1C(=O)N(Cc2cccnc2)C(c2cccc(Br)c2)/C1=C(/O)c1ccc2c(c1)OCO2 (centres undefined),-7,1,1,-2,0,4082,3.5
O=C(NC1CCN(Cc2ccccc2)CC1)C1CCN(S(=O)(=O)c2ccccc2)CC1,-9,7,5,-1,4,3924,1.8
O=C(N/N=C/c1cccc(OC(=O)c2cccc(Br)c2)c1)c1ccncc1,2,.,.,1,.,4455,.
CSc1nnnn1-c1cccc(O)c1,4,15,5,4,15,6749,7.5
O=C(NC1CCCC1)c1cc(-c2ccc(Cl)cc2)on1,-78,10,6,-1,4,5602,14
Cc1ccccc1CS(=O)(=O)Cc1ccc(C(=O)NCCCN2CCCC2=O)o1,-13,-3,4,8,5,2467,5.7
Cc1cc(C)c(C#N)c(SCC(=O)Nc2nonc2N)n1,-27,5,-8,-1,-16,5551,4.2

Compound,PrP UTR inh,Sa ugtP lethal,Mtb hypoxia inh growth,BJeLR lethal,Mtb hypoxia inh,Autofluor counter,Sa RN4220 lethal
CCN1C(=O)NC(c2cccc(C(F)(F)F)c2)C(C(=O)OC)=C1C (centres undefined),.,3,15,.,23,.,7.7
CCN1C(=O)C2C(c3ccc(OC)cc3)N3C(=O)CN(CCOC)C(=O)[C@@]3(C)C2C1=O (some centres undefined),.,1,0,.,9,.,3.7
COc1ccc(S(=O)(=O)N2CCC(C(=O)Oc3cccc(C)c3)CC2)cc1OC,-11,7,1,-2,8,.,-0.8
c1ccc(Nc2nc3ccccc3n3cnnc23)cc1,-7,8,8,-6,9,6005,3.2
Cc1cc(NC(=O)CSc2ncnc3ccccc23)no1,-11,1,2,-1,2,4365,-2.1
CCCNC(=O)C1CC(c2ccc(C(F)(F)F)cc2)=NO1 (centres undefined),-21,-14,16,5,12,3654,-0.6
CCOc1ccc(C2C(=C(O)c3cccc(OC)c3)C(=O)C(=O)N2c2cc(C)on2)cc1OC (centres undefined),.,6,12,.,-2,.,2.7
Cc1ccc(C(=O)Nc2cccnc2Cl)cc1Cl,-60,-2,4,-4,17,4059,8.0
Cc1cc(C)cc(OCC(O)CN2C(=O)NC(C)(C)C2=O)c1 (centres undefined),-32,-5,.,5,.,5804,2.5
O=C1CC(N2CCN(C/C=C/c3ccccc3)CC2)C(=O)N1CCc1ccccc1 (centres undefined),-10,5,-6,-7,2,11389,-1.6
COC(=O)C1(C)NC(c2ccc(OC)cc2)C2C(=O)N(c3ccccc3)C(=O)C21 (centres undefined),-24,3,12,3,8,3375,1.7
Cc1ccc2c(CN3CCN(S(=O)(=O)c4ccc(Cl)cc4)CC3)cc(=O)oc2c1C,9,3,11,.,-3,5633,1.6

Compound,PrP UTR inh,Sa ugtP lethal,Mtb hypoxia inh growth,BJeLR lethal,Mtb hypoxia inh,Autofluor counter,Sa RN4220 lethal
CCCNC(=O)CSc1nnc(-c2ccccc2Br)n1-c1cccc(C(F)(F)F)c1,-3,4,7,.,7,2494,3.7
CC(=O)N1CCN(c2ccc([N+](=O)[O-])cc2)CC1,-22,10,-1,2,6,2597,3.8
O=C(C1CCC1)N1CCN(S(=O)(=O)c2ccc([N+](=O)[O-])cc2)CC1,.,4,11,.,9,?,21
CC1CCCCC1NC(=O)COC(=O)c1ccc2c(c1)NC(=O)CS2 (centres undefined),-10,3,16,.,8,3859,1.4
CC(NC(=O)c1nc[nH]c1C(=O)NC(c1ccccc1)c1ccccc1)C(=O)OC(C)(C)C (centres undefined),.,-2,4,.,2,.,-2.3
Cc1cccc(NC(=O)COC(=O)c2cccc(S(=O)(=O)N3CCCCCC3)c2)c1,-2,-3,36,.,14,3987,0.3
Cn1c(CC(=O)NNC(=O)c2ccccc2F)nc2ccccc21,-14,5,-4,.,0,5890,3.1
O=C(NN1CCOCC1)c1cc(-c2ccncc2)nc2ccccc12,-17,-2,6,2,3,3846,4.3
CN1CCN(c2ccc(C(CC(N)=O)NC(=O)Cc3cccc4ccccc34)cc2[N+](=O)[O-])CC1 (centres undefined),-17,2,7,2,9,4010,4.4
Cc1ccc(N(C(=O)Cc2cccs2)C(C(=O)NCC2CCCO2)c2ccncc2)cc1 (centres undefined),-32,2,-2,1,-1,4222,5.0
O=C1c2ccccc2[C@@H]2C[C@@H](O)[C@H](Nc3cccc4ccccc34)CCN12,-16,6,-7,.,8,4260,5.6
CCOC(=O)N1CCN(C2CC(=O)N(c3ccccc3)C2=O)CC1 (centres undefined),-35,0,-1,3,4,8204,7.8
O=C(NC1CCCCC1)c1cccc(S(=O)(=O)N2CCCCC2)c1,0,1,15,1,-6,5701,-1.3
CCCCCCSc1cccc(-c2nc3ccc(C)cn3c2NC2CCCCC2)c1,-14,17,2,-4,3,3456,-2.5

Two successive compounds from above, for reference:
Compound,PrP UTR inh,Sa ugtP lethal,Mtb hypoxia inh growth,BJeLR lethal,Mtb hypoxia inh,Autofluor counter,Sa RN4220 lethal
CCCNC(=O)CSc1nnc(-c2ccccc2Br)n1-c1cccc(C(F)(F)F)c1,-3,4,7,.,7,2494,3.7
CC(=O)N1CCN(c2ccc([N+](=O)[O-])cc2)CC1,-22,10,-1,2,6,2597,3.8
